KSHV LANA nucl: LANA-nucleosome interaction inhibition. FITC-LANA1-23 / chicken nucleosome fluorescence polarization; hits give low values. z-score (no concentration beside the values). hit rate 0.3% among 51,000. AID 720717;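 active = both repeat wells score below -2 in polarization z-score versus plate sample wells, excluding overly bright wells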;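 also: 100 nL library stock added to about 30 µL; numbers are from one replicate; some results filed as inactive read as strong as hits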
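Test system: purified chicken nucleosomes with FITC-labelled LANA N-terminal peptide (1-23); Input: 240 nM purified chicken nucleosomes (480 nM peptide binding sites), final; Medium: TEN-BT buffer, pH 7.5; Timing: 10–45 min, room temperature; Technique: fluorescence polarization, 480 nm excitation, 535 nm parallel and perpendicular emission; Replication: duplicates.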
Ab BasE inh: BasE siderophore biosynthesis inhibition; purified BasE, fluorescence polarization binding displacement; AID 485350; hit rate 0.1% among 84,000; inhibition, % (test concentration not listed);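 active = both replicates above 25% with normal brightness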;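 also: 0% = negative plate control signal and 100% = positive plate control signal; stock transfer was 100 nL into about 30 µL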
An asterisk follows results filed as active; . = no result given; & = joins results of further samples. These rows are one share of the data; count on the stated rates, not on these rows.

Every second line gives: KSHV LANA nucl, Ab BasE inh
COc1cc(OC)c(NC(C)C(=O)N(C)C2CCCCC2)cc1Cl (stereo not given)
    ., 0.6
CCOC(=O)C1Cc2ccccc2CN1 (stereo not given)
    0.45, 2.3
CCOc1ccccc1-n1nnnc1SCC(=O)c1ccc(CNC(C)=O)o1
    ., -1.3
CN(C)CC1(c2ccccc2)CCCC1
    0.32, 0.2
CCCNc1nc(NCC)nc(OC)n1
    0.17, -0.3
COc1cccc(C(=O)C2CC2c2ccc(Cl)cc2)c1 (stereo not given)
    0.3, .
NC(=O)C1CCN(CC(=O)Nc2ccccc2)CC1
    -0.72, 2.4
CCc1cc(C)cc(OCCn2cc(C=C3C(=O)NC(=O)NC3=O)c3ccccc32)c1
    ., -8.8
COC(=O)c1ccc(COC(=O)c2cc(C)oc2C)cc1
    ., 1.3
CC(C)(C)NC(=O)/C=C/c1c(Cl)nc2sccn12
    ., 0.8
Cn1nc(C(=O)Nc2cccc3ccccc23)ccc1=O
    ., -1.6
Cc1ccc(-n2nc(C)c(C(=O)N(Cc3ccccc3)C(C)C)c2-n2cccc2)cc1
    -0.82, -1.4
CCCNC(=O)NNc1cccc(C)c1
    ., -2.0
N/C(=N\OC(=O)CC1CCCCC1)c1ccccc1
    -0.57, -1.6
O=c1[nH]c(=O)n(-c2ccccc2)c(O)c1C=NCCO
    0.29, 0.5
COc1ccc(OC)c(NS(C)(=O)=O)c1
    0.35, 0.4
CCC1CCCCN1S(=O)(=O)c1ccc(S(=O)(=O)n2cnc3cc(C)c(C)cc32)cc1 (stereo not given)
    -0.57, 2.2
O=C(C1CCN(S(=O)(=O)c2cnc[nH]2)CC1)N1CCN(Cc2ccc3c(c2)OCO3)CC1
    0.46, 0.7
c1ccc2c(c1)nnn2CNCn1nnc2ccccc21
    -0.48, 5.9
c1ccc(CN2CC(c3nn[nH]n3)CN(Cc3ccccc3)C2)cc1
    ., 1.8
CCC(=O)Nc1cccc(NC(C)=O)c1
    -0.059, -0.5
CC(=O)N1c2ccccc2C(=O)C1NC(N)=S (stereo not given)
    ., -1.3
CC(C)(C)C(=O)NC1CCN(S(=O)(=O)c2ccc(C(F)(F)F)cc2)CC1
    0.87, 2.4
CN1/C(=C2/S/C(=N\c3ncn[nH]3)N(Cc3ccccc3)C2=O)Sc2ccccc21
    3.3, -5.3
COc1cc2nc(CNc3ccc(C)cc3)[nH]c(=O)c2cc1OC
    ., -0.8
CCc1cc(=O)oc2c(C)c(OCC(N)=O)ccc12
    ., 1.9
CCCCn1c(N)c(N(CCOC)C(=O)CN2CCCCCC2)c(=O)[nH]c1=O
    ., 1.8
O=S(=O)(c1ccc2nnn(OCc3cccc(F)c3)c2c1)N1CCCCC1
    ., 2.5
COc1cccc2c1OC1=C(C(=O)CCC1)C2C1=C(O)CCCC1=O (stereo not given)
    0.14, 2.3
C/C(=N\N)c1cccs1
    ., 1.2
C=CCN(CC=C)C(=O)CSc1nnc(N)s1
    1.5, -1.1
CCS(=O)(=O)c1ccccc1C(=O)Nc1nc(-c2ccc3c(c2)OCCO3)cs1
    -0.21, 0.1
CCN(CC)P(=O)(Nc1ccccc1Br)c1ccc(N(C)C)cc1NC(=O)c1ccco1 (stereo not given)
    ., 3.0
CC(C)(C)c1cc(CN2CCOCC2)c(C(=O)O)o1
    -1.1, 1.8
CSc1nsc2nc(=O)c(/C=C3\C=CC(=O)C(O)=C3)c(N)n12
    2.6, 8.6
COc1ccc(Nc2nc(N)nc(CN3CCCCC3)n2)cc1
    ., -3.0
COc1cccc(-n2c(C)c3c(OC)cccc(=O)c3c2C)c1
    0.47, -0.4
CCCn1c2ccccc2c2cnn(CC(=O)NCc3cccnc3)c(=O)c21
    0.78, 1.2
c1ccc(CN2CCCCC2)cc1
    ., -2.2
COC(=O)C1=CN(CC(C)C)C=C(C(=O)OC)C1c1cccc(F)c1
    2.9, -11
CC(C)(C)c1cc(C(=O)CCN2CCCCC2)cc(C(C)(C)C)c1O
    ., 0.5
CCCCN1C(=O)c2[nH]nc(-c3ccccc3O)c2C1c1ccccc1 (stereo not given)
    0.3, 1.8
O=C(CS(=O)(=O)c1ccccc1)Nc1ccccn1
    -0.52, 1.1
O=C1OCCC1Sc1nc2scc(C3CC3)c2c(=O)n1C1CCCCC1 (stereo not given)
    ., -3.5
Cc1ccccc1NC(=O)C(C)Sc1nnc(-c2ccccc2O)o1 (stereo not given)
    0.64, 2.8
N#Cc1ccccc1CSc1ncccc1C(=O)O
    ., 0.4
Cc1ccc(-n2nc3ccc(NC(=S)NC(=O)c4cc5ccccc5o4)cc3n2)cc1Cl
    -0.049, 0.9
CCN1CCN(Cn2nc(-c3c[nH]c4ccccc34)n(CC3CCCO3)c2=S)CC1 (stereo not given)
    ., 2.4
CC(C)(CO)NC(=O)c1sc2ccccc2c1Cl
    ., -1.5
O=c1cc(OCc2ccccc2)c2ccccc2[nH]1
    -0.13, 1.1
O=C(O)c1cccc(CSc2nc3ccccc3o2)c1
    -0.35, 0.6
Cc1cccc(NC(=O)Nc2ccc(C)c(C)c2)c1
    0.16, 1.4
O=C(c1cc(-c2ccccc2)nn1-c1ccccc1)N1CCC1
    ., 1.4
Cc1ccc(Cl)cc1N1CCN(CCNC(=O)CCCn2sc3ccccc3c2=O)CC1
    -0.52, 0.3
NC(=O)CSc1n[nH]c(-c2ccco2)n1
    0.74, 0.6
Cc1sc2nc(CN(CCc3ccccc3)C(=O)c3ccco3)[nH]c(=O)c2c1C
    -0.19, -0.4
Cc1ccc(S/C(=C/N(C)C)C(=O)c2ccc(C)cc2)cc1
    ., 2.4
CO[C@@]1(NC(=O)Cc2cccs2)C(=O)N2C(C(=O)O)=C(COC(N)=O)CS[C@@H]21
    0.021&-0.66&0.35, 0.4&1.0
NS(=O)(=O)c1ccc(CNC(=O)c2cc(=O)c3ccccc3o2)cc1
    -0.95, 1.5
COc1ccc(C)cc1NC(=O)N1CCN(S(C)(=O)=O)CC1
    -0.5, -1.3

Further results.
Every second line gives: KSHV LANA nucl, Ab BasE inh
CC1CCN(C(=O)c2ccc3c(c2)nnn3C)CC1
    0.62, 0.8
N#Cc1cc2c(=O)n3ccccc3nc2n(Cc2ccco2)c1=N
    ., 3.2
CCOc1ccc(NC(=O)Cn2c(Nc3ccc(OCC)cc3)nc3c2c(=O)[nH]c(=O)n3C)cc1
    0.53, -2.3
O=C1CC(C(=O)Nc2cc(Cl)cc(Cl)c2)C2=C(CCCC2=O)N1 (stereo not given)
    -0.48, 1.9
CCN1CCN(C(=O)/C(C#N)=C/c2cc(C)n(C3CCCC3)c2C)CC1
    ., -1.4
CCCNC(=O)C1CCN(Cc2nc(-c3ccc(OC)c(OC)c3)oc2C)CC1
    2.2, -8.2
O=c1[nH]nc(SCc2cc(Cl)cc3c2OCOC3)n1CC1CCCO1 (stereo not given)
    ., -1.0
O=C(C1CNc2ccccc2O1)N1CCOCC1 (stereo not given)
    ., -0.3
O=C(CSc1nc2ccccc2c(=O)n1Cc1ccco1)OC1CCCCC1
    0.82, 2.3
COc1cc(SC#N)ccc1N=Cc1c(O)n(-c2cccc(C)c2)c(=O)[nH]c1=O
    0.74, 3.5
COc1ccc(CCN(C)C(=O)C2CCCN(Cc3ccc(OC)c(OC)c3)C2)cc1OC (stereo not given)
    ., 0.0
Clc1ccc2nc(N3CCCCC3)[nH]c2c1
    ., -0.5
CCSC(=O)NC1CCCCC1
    ., 1.0
O=C(N=Nc1[nH]c2ccccc2c1O)c1ccc(Cl)cc1
    -0.031, 0.1
Cc1ccc(N2C(=O)CC(N3CCN(c4nc(C)cc(C)n4)CC3)C2=O)cc1 (stereo not given)
    0.44, 1.2
Cc1[nH]c2ccccc2c1C(Nc1ccccn1)c1ccc(C(F)(F)F)cc1 (stereo not given)
    ., -2.0
O=C(CCCc1c[nH]c2ccccc12)N1CCN(S(=O)(=O)Cc2ccccc2)CC1
    ., 3.1
O=C(COC(=O)c1ccccc1C(=O)N1CCN(c2ccc(F)cc2)CC1)NC1CC1
    ., 0.8
COc1cccc(-c2nc(-c3cccs3)c(-c3cccs3)[nH]2)c1
    1.8, -3.2
CCN=C1SC(CC(N)=O)C(=O)N1CC (stereo not given)
    -0.88, 2.3
CCCN1C(=O)/C(=N\OCc2nnc(-c3cccs3)o2)c2ccccc21
    ., 2.4
CN1C(=O)C(Cc2ccccc2)NC1=S (stereo not given)
    0.63, 0.9
Nc1cc(=O)nc(SCC(=O)NCc2ccccc2)n1-c1ccccc1
    ., -1.4
O=C1CNC(=S)N1CC1CCCO1 (stereo not given)
    -0.61, -6.7
CC1=C(C)CC(C(=O)c2ccc(C)cc2)C(C(=O)O)C1 (stereo not given)
    ., 2.4
Cc1cc(C(=O)COc2ncnc3sccc23)c(C)n1-c1ccccc1
    ., -1.7
OC1CCCN(Cc2ccccc2)C1 (stereo not given)
    ., 0.2
CNNC(=S)Nc1ccc(Cl)cc1
    -0.48, 1.3
C=CCSc1nc2sc3c(c2c(=O)[nH]1)CC(C)(C)OC3
    -0.18, -0.2
O=C(Cc1cccc(C(F)(F)F)c1)Nc1nccs1
    ., 0.4
Fc1ccccc1CNC1CC1
    0.068, -0.7
CSc1nc2ccccc2c(=O)n1N
    -0.55, 2.3
Cc1ccc2c(C)nc(Nc3nccc(C)n3)nc2c1
    -0.44, -7.9
NC(=S)NNc1ccc(F)cc1
    -0.32, 3.5
O=S(=O)(NCC(Sc1nnnn1-c1ccccc1)c1ccccc1)c1ccc(Cl)s1 (stereo not given)
    ., -0.6
O=C(O)c1sc2sccc2c1Cl
    ., 2.1
O=C(NCc1ccncc1)c1cccc(Nc2nc3ccccc3n3nnnc23)c1
    0.17, 1.3
C=CCN1C(=O)/C(=C\c2ccccc2)C(C(=O)OC)=C1C
    0.19, 0.0
Nc1cccc2c1C(=O)N(C(=O)C1CCCN1C(=O)c1cccs1)C2=O (stereo not given)
    ., 3.3
O=C(/C=C/c1ccco1)N1CCC(Cc2ccccc2)CC1
    ., 2.4
CCc1ccc(C(=O)NCc2nnc(SC)n2CC)cc1
    -0.69, -0.9
CCCn1c(SCC(=O)N2CCc3ccccc3C2)nc(O)cc1=O
    ., 2.2
COc1ccc(C(=O)OCC(=O)c2ccc(C)cc2)cc1OC
    1.8, -8.6
Cn1cc(SCC(=O)NC2CCCC2)c2ccccc21
    -0.98, 1.2
O=C(Nc1ccc(-c2cn3c(n2)SCC3)cc1)c1ccc(Br)o1
    0.76, -1.3
O=C1CCCc2cc(S(=O)(=O)NCC3CCN(Cc4cccc(F)c4)CC3)ccc2N1
    ., 1.3
Cc1cc(C)n(C(C)C(=O)Nc2ccccc2C)c(=O)n1 (stereo not given)
    -0.22, -0.9
CCOC(=O)c1sc(=S)n(C)c1C
    0.4, 0.7
N#CCn1c(=O)oc2ccccc21
    ., -0.3
O=C(N/N=C/c1sc(Nc2ccccc2)nc1Cl)C1CC1
    ., -10
C#CC(=O)OCC(=O)Nc1ccc(C)c(C)c1
    ., -2.8
Cc1ccccc1-n1c(SCC(=O)Nc2ccc(F)c(Cl)c2)nnc1-c1cc2occc2n1C
    -0.11, 1.1
CC12C(=O)OC(=O)C1(C)C1CCC2O1 (stereo not given)
    -0.29, -1.1
CC1(C)c2sc(=O)[nH]c2SC2C(=O)N(c3ccc(Br)cc3)C(=O)C21 (stereo not given)
    ., 2.8
Cc1cc2cc(CNC(=O)NC3CCCCC3)ccc2n1C
    -1.3, 1.6
CC1CC(C)CN(C(=O)c2cc3c(-c4ccc(Cl)cc4)nn(C)c3s2)C1 (stereo not given)
    2.4, 0.4
O=C(NC1CCN(Cc2nnnn2Cc2ccc3c(c2)OCO3)CC1)c1ccccc1F
    -1.4, -1.0
NC(=O)Cc1csc(N)n1
    ., 2.2
Cc1ccc(C(C(=O)NCc2ccccc2)N(C(=O)C2COc3ccccc3O2)c2cccc(O)c2)o1 (stereo not given)
    -0.11, -2.3
O=C1NC(=S)NC(=O)C1=CN1CCCc2ccccc21
    ., 1.8

Next part:
Every second line gives: KSHV LANA nucl, Ab BasE inh
C=CCN(CC=C)Cc1c(O)ccc2c(=O)c(-c3ccccc3)coc12
    ., 4.1
O=C(COc1ccccc1F)NCC(c1ccc(F)cc1)N1CCOCC1 (stereo not given)
    ., 0.5
Cc1ccccc1OCC1=NN2C(=N)/C(=C/c3ccc(N(C)C)cc3)C(=O)N=C2S1
    -4.8*, 11
COc1cc(C)c(CN2CCCCC2)cc1C
    0.27, -2.1
CCCCNC(=O)C1CCCN(S(=O)(=O)CC)C1 (stereo not given)
    0.88, 0.3
O=C(CN1CCN(c2ccccc2)CC1)Nc1nnc(C2CCCCC2)s1
    -0.26, -0.6
Cc1noc(C)c1CSc1ncnc2sccc12
    ., 1.6
CCN(CC)Cc1c(O)ccc2c(C)cc(=O)oc12
    -1.5, -0.1
Cc1c(COC(=O)c2ccccc2)sc2ccccc12
    ., -1.0
CCOC(=O)c1c(NC(C)=O)c2c3c(sc2n1Cc1ccccc1Cl)CCCC3
    -0.092, 1.7

Shown bar-delimited: three of the compounds above.
SMILES | KSHV LANA nucl | Ab BasE inh
O=C(COc1ccccc1F)NCC(c1ccc(F)cc1)N1CCOCC1 (stereo not given) | . | 0.5
Cc1ccccc1OCC1=NN2C(=N)/C(=C/c3ccc(N(C)C)cc3)C(=O)N=C2S1 | -4.8* | 11
COc1cc(C)c(CN2CCCCC2)cc1C | 0.27 | -2.1
